# D2 potentiator = potentiates the human D2 dopamine receptor allosterically. P14416. DiscoveRx D2 beta-arrestin cells, luminescence, 90 min; 100% = 57 uM dopamine signal. potentiation, % (no concentration beside the values). 360,000 compounds, 0.23% hits. AID 624464; active = potentiation of 50% or more; inconclusive = 30% to 50%; inactive = 30% or less;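 also: compound concentration not given in the record; tested on top of an EC20 dose of dopamine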
# Target sequence (P14416 whole entry, looked up): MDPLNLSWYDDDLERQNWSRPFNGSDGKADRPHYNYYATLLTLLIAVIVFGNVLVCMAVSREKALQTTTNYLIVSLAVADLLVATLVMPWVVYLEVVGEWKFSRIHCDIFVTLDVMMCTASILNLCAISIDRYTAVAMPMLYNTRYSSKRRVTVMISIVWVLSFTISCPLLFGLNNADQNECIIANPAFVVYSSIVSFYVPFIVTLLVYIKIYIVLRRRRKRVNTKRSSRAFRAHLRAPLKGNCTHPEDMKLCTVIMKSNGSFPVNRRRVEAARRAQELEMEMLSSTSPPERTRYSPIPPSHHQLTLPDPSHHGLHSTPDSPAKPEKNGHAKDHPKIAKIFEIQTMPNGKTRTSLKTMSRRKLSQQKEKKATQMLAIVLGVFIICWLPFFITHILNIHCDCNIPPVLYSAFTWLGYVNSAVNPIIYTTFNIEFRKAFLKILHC
#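 PathHunter D2 cells, attached overnight at 37 deg C, received compound in DMSO plus dopamine at EC20 (50 nM final) for 90 min at 37 deg C. Beta-arrestin recruitment was read as luminescence after 1 h with detection reagent at ambient temperature.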
# TRPV1 potentiator = potentiators of human vanilloid receptor 1 (TRPV1) | TRPV1-expressing cells, Fluo-8 calcium influx, capsaicin EC20 potentiation; host cell line not named in the record; control for the full effect not named in the record | Q8NER1 | potentiation, % at 8.33 µM | 320,000 compounds, 0.02% hits; active means potentiation above 80%; inconclusive means 30% to 80%; inactive means below 30%; also: 0% is about no effect
#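 Fluo-8 calcium influx in TRPV1-expressing cells, kinetic read (ex 480/em 520 nm). Compound added and read 3 min for agonist activity, followed by capsaicin at EC20 final and 2 min further read for enhancement.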
# Sfp PPTase inh = blocks B. subtilis Sfp PPTase activity; Q9F4F7; Biochemical Sfp PPTase activity, qHTS; Potency, µM, inactives show max response, negative = inhibition, most hits filed as inhibitors; 310,000 compounds, 3.5% hits; AID 1490; active = well fitted inhibition curve with a large enough effect; inconclusive = small, poorly fitted or top-dose-only effect, or another doubt; inactive = no such curve, though single readings can be large or run the other way;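 also: the enzyme is Sfp with the accession as filed and its product quenches rhodamine fluorescence; potency is read from the fitted curve at half-maximal effect; 0% = enzyme reaction without inhibitor and -100% = no enzyme wells; top concentration of the series not given in the record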
#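 Buffer: 50 mM Hepes-Na pH 7.6, 10 mM MgCl2, 0.01% Nonidet P-40, 0.01% BSA. Enzyme 15 nM, pre-exposed to compound 15 min; substrates then added and fluorescence change tracked over 30 min.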
# ClpP mod = qHTS Assay for Activators of ClpP; ATP-dependent Clp protease proteolytic subunit (Bacillus subtilis (strain 168)), P80244; 340,000 compounds, 1.9% hits; purified B. subtilis ClpP, FRET peptide cleavage, 20 min; Potency, µM (top dose mostly 57.5 µM), without a hit: top-dose activity change, negative = active; active = well fitted falling curve with a large enough effect; inconclusive = small, poorly fitted or top-dose-only effect; inactive = no such curve, though single readings can be large or run the other way; also: potency is read from the fitted curve at half-maximal effect; the source files actives as falling curves though it sought activators and does not explain the sign; nearly all actives have a fitted effect of over 65% in size; many hits overshoot -100%
# Target sequence (P80244 whole entry, looked up): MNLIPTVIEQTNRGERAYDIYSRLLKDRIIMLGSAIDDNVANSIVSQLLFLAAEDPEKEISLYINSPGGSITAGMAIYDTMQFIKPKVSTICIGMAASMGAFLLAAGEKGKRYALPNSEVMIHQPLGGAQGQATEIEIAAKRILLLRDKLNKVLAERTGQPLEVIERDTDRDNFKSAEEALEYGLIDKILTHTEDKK
#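 ClpP 10 microg/mL final, pH 8 Tris/KCl buffer with BSA, glycerol, Tween-20; compound pinned in; FRET-FV substrate; RT 20 min; Ex320/Em430; ΔFRET vs ADEP 5.8 microM, DMSO, no enzyme.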
# gsp agonist = agonists of gsp mutant (McCune-Albright syndrome). gsp mutant cells, cAMP HTRF, 30 min; control for the full effect not named in the record. Potency, µM (top dose mostly 76.9 µM), inactives show top-dose activation (cAMP increase), hits mostly activators. 340,000 compounds, 0.13% hits. AID 624287; active = well fitted activation curve with a large enough effect; inconclusive = small, poorly fitted or top-dose-only effect, or another doubt; inactive = no such curve, though single readings can be large or run the other way; cell line not stated here;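 also: phosphodiesterase inhibitor Ro 20-1724 added with compounds to block cAMP breakdown; potency is read from the fitted curve at half-maximal effect; nearly all actives have a fitted effect of over 60% in size; about a fifth of the inactives were tested at one dose only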
#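 Cells in DMEM/10% FBS with G418 were pretreated with compounds in DMSO plus […] (300 uM stock) for 30 min at 37C. cAMP was measured by HTRF (cAMP-d2 plus anti-cAMP antibody-K) after 30 min at room temperature.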
# gsp antag = antagonizes gsp, the McCune-Albright syndrome mutation | gsp-mutant cells, cAMP HTRF, 30 min; control for the full effect not named in the record | Potency, µM (series often up to 76.9 µM), for the others: at the top dose activity change, negative = inhibition, most hits filed as inhibitors | 340,000 compounds, 0.4% hits; active = falling curve of any shape with a large fitted effect; inconclusive = falling curve, mostly with a smaller effect; inactive = flat or rising curve; cell line not stated here;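 also: intracellular cAMP measured with PDE inhibitor Ro 20-1724 present during compound exposure; potency is read from the fitted curve at half-maximal effect; % is scaled to controls: 0 for no effect and ±100 for the full control effect; nearly all actives have a fitted effect of over 65% in size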
#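 HTRF cAMP read-out (cAMP-d2 plus anti-cAMP antibody-K in lysis buffer, 30 min RT). Before lysis, cells are exposed to compounds with […] for 30 min at 37C in DPBS containing Ca/Mg, BSA and Tween 20.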
# Menin-MLL FL inh = menin-MLL binding inhibition, fluorescein peptide | Fluorescence polarization, fluorescein-MLL peptide displacement from menin | FP activity change, % at 61.4 µM | 290,000 tested, under 10 active; inconclusive = falling polarisation curve, or a change in total fluorescence; inactive = total fluorescence flat and polarisation flat or rising; no compound was filed as active; the % refers to the polarisation; negative = inhibition;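 also: % of control where 0% means no effect; inhibitors lower the polarisation; unlabelled MLL peptide was the positive control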
# * = called active by the depositor; ? = inconclusive; . = no result given; & = joins results of further samples; [ ] = remark or other dose.
SMILES,D2 potentiator,TRPV1 potentiator,Sfp PPTase inh,ClpP mod,gsp agonist,gsp antag,Menin-MLL FL inh
Cc1ccc(NC(=O)C2CCN(C(=O)c3ccc(Cl)cc3)CC2)nc1,-13,2,.,?,-26%,9%,.
CC(/C=N\N1CCN(Cc2ccc(C)cc2)CC1)=C\c1ccccc1,-19,7,?,.,-9%[15.4 µM],6%,-2.7
Cc1oc(-c2ccccc2)cc1C(=O)Nc1cccc(C(=O)O)c1,-4,-16,?,-4.2%,?,-14%,4.7
COC(=O)c1c(-c2cccc3ccccc23)csc1NC(=O)Cc1ccc(OC)c(OC)c1,18,18,-11%,-28%,-55%[inhibitor],-7%,4.3
N#Cc1cc2c(nc1SCC(=O)Nc1sc3c(c1C#N)CCC3)CCC2,-11,3,0%,1.6%,17%,0%,8.6
CC(=O)Nc1ccc(S(=O)(=O)N2CCN(C34CC5CC(CC(C5)C3)C4)CC2)cc1,3,-11,-9%,0.6%,-44%[inhibitor],1%,1.4
CC(NC(=O)Cc1ccc(S(=O)(=O)N2CCCCC2)cc1)c1ccccc1 (stereo unspecified),-4,-10,.,-1.4%,-46%[inhibitor],2%,.
O=C(c1ccc(F)cc1)c1ccc(CN2C(=O)c3ccccc3C2=O)o1,-11,-2,2%,.,11%[15.4 µM],?,5.3
COc1cccc(CN2CCN(C(=O)c3ccco3)CC2)c1OC,19,.,.,?,-2%,8%,.
O=C(O)Cc1coc(-c2ccc(F)cc2)n1,9,14,9%,-0.5%,11%,-7%,0.6
CNS(=O)(=O)c1ccc(CCC(=O)N2CCN(c3ccccc3OC)CC2)cc1,4,-25,6%,0.9%,2%,-12%,-0.5
Cc1nc(N2CCN(C)CC2)c2sc(=S)n(C)c2n1,-7,-5,5%,-0.4%,-77%[inhibitor],1%,-2.6
CN(C1CCCCC1)S(=O)(=O)c1cccc(C#N)c1,0,-19,2%,.,-1%[15.4 µM],-2%,0.8
CCOCCCNC(=O)C(c1ccc(Cl)cc1)N(Cc1cccs1)C(=O)CNC(C)=O (stereo unspecified),-15,5,7%,?,12%[15.4 µM],8%,1.9
COc1ccc(CCNC(=O)c2ccc(NS(=O)(=O)c3ccc4[nH]c(=O)[nH]c4c3)cc2)cc1OC,8,11,5%,-2.0%,17%[15.4 µM],11%,.
Cc1cc(C)c2nc(NNC(=O)c3cc(=O)c4ccccc4o3)sc2c1,-5,-1,18µM*,-1.3%,-3%,?,21
COCCn1nnnc1C(c1cccc(OC)c1OC)N1CCN(C2CCCCC2)CC1 (stereo unspecified),4,7,21%,-12%,-3%,2%,-0.1
Cc1ccc(C)c(/C=C/C(=O)c2ccccc(=O)c2O)c1,-38,17,?,1.8%,-11%,-21%,23
CCCCn1c(N)c(N(CCOC)C(=O)CSc2nnc(-c3ccc(C(C)(C)C)cc3)n2N)c(=O)[nH]c1=O,-7,2,.,1.7%,-9%[15.4 µM],10%,.
OCCN1CCN(C(=S)NCCc2ccccc2)CC1,-5,-8,11%,-0.2%,-2%,18%,-1.2
OC[C@@H](O)[C@@H](O[C@@H]1O[C@H](CO)[C@H](O)[C@H](O)[C@H]1O)[C@H](O)[C@@H](O)CO,0,.,.,2.5%,.,5%,.
Cc1onc(NC(=O)NC(=O)c2c(F)cccc2Cl)c1Br,-12,-6,2%,0.7%,29%,-13%,.
CSC1=NC(C)(C)C=C(/C=C/c2c(Cl)cccc2Cl)N1,-7,-17,-3%,.,17%[15.4 µM],2%,9.5
Cc1ccc(S(=O)(=O)N2CCOCC2)s1,-3,14,8%,-1.0%,8%,-18%,.
COc1ccc(CN2C(=O)c3ccccc3C2C(=O)NCCc2ccccc2)c(OC)c1 (stereo unspecified),-8,-7,6%,0.0%,0%[15.4 µM],-16%,3.7
Cc1ccc(NC(=O)C(OC(=O)c2cc(C)oc2C)c2ccccc2)cc1 (stereo unspecified),-17,2,11%,-0.9%,-6%,-15%,1.3
CCN1CCN(C(=O)c2ccc(Cl)c(S(=O)(=O)N(C)c3ccccc3)c2)CC1,-3,26,.,0.6%,-7%,2%,.
O=C(Cn1c(NCCO)nc2ccccc21)c1ccco1,-7,6,-4%,-0.1%,0%,8%,0.5
Cc1ccccc1NC(=O)N1CCC(C(=O)c2ccc(F)cc2)CC1,-4,14,13%,-2.7%,6%,6%,-0.9
CCN(CC)S(=O)(=O)c1cccc(NC(=O)COC(=O)c2cc(C)oc2C)c1,-4,2,16%,-0.5%,13%,-28%,-0.1
CC(C)n1c(-c2ccc(N(C)C)cc2)nc2ccccc21,-13,-11,-2%,5.5%&3.6%,-16%,-26%,1.7
CC(C)CCNC(=O)CCCn1c(=O)[nH]c2ccc(Br)cc2c1=O,-13,4,11%,-4.3%,?,3%,-0.4
Fc1ccc(Oc2nc(-c3ccccn3)nc3ccccc23)cc1,-8,-2,?,.,-1%[15.4 µM],-2%,1.1
Fc1ccc(-c2n[nH]c(=S)n2Cc2ccccc2)cc1,-4,18,-10%,0.1%,9%[15.4 µM],7%,-3.8
Cc1ccc(C)c(NC(=S)NC2CC3CCCC(C2)N3CC(C)C)c1 (stereo unspecified),-12,0,10%,-0.9%,-42%[inhibitor],11%,-1.2
CN(C)S(=O)(=O)c1cccc(C(=O)NCCOC(=O)c2cc(F)c(F)cc2Cl)c1,-6,-17,4%,.,?,2%,.
CCS(=O)(=O)N1CCC(C(=O)NCCCN2CCC(Cc3ccccc3)CC2)CC1,-4,6,9%,0.3%,0%,9%,2.9
O=C(O/N=C\c1ccc(N2CCOCC2)c([N+](=O)[O-])c1)c1ccccc1Cl,-8,2,12%,1.6%,-36%[inhibitor],-11%,2.9
CCOc1cc2c(cc1C(C)(C)C)NC(=O)CS2,-18,-5,7%,0.9%,2%,-3%,1.6
c1ccc(CSc2nnc(-c3ccco3)o2)cc1,-5,-15,13%,.,37%[15.4 µM],8%,3.2

# 3 entries out of the list, arranged by formula weight, highest first.
SMILES,D2 potentiator,TRPV1 potentiator,Sfp PPTase inh,ClpP mod,gsp agonist,gsp antag,Menin-MLL FL inh
Cc1onc(NC(=O)NC(=O)c2c(F)cccc2Cl)c1Br,-12,-6,2%,0.7%,29%,-13%,.
Cc1ccccc1NC(=O)N1CCC(C(=O)c2ccc(F)cc2)CC1,-4,14,13%,-2.7%,6%,6%,-0.9
CSC1=NC(C)(C)C=C(/C=C/c2c(Cl)cccc2Cl)N1,-7,-17,-3%,.,17%[15.4 µM],2%,9.5

# The list continues:
SMILES,D2 potentiator,TRPV1 potentiator,Sfp PPTase inh,ClpP mod,gsp agonist,gsp antag,Menin-MLL FL inh
O=C(CCC(=O)c1cccs1)NNC(=O)c1cccc(Cl)c1,6,12,.,.,1%[15.4 µM],0%,.
Cc1ccc(NC(=O)C2CC(=O)Nc3nc4ccccc4n32)c(C)c1 (stereo unspecified),-5,0,8%,.,-26%[15.4 µM],12%,1.4
CCn1ncc([C@@H]2C[C@H]3CN(Cc4cccc(Cl)c4)C(=O)[C@]34CCCN24)c1C,-7,17,12%,.,3%[15.4 µM],6%,5.4
COc1ccc(-c2cc(C(=O)NC3CCCC3)c3ccccc3n2)cc1,3,-4,6%,4.2%,-9%,-5%,2.2
COc1ccc(OCc2nnnn2-c2ccccc2)cc1,4,1,3%,2.1%,-23%,-1%,2.6
CC(C(=O)O)n1ncc2ccccc2c1=O (stereo unspecified),0,1,14%,-0.8%,3%,-10%,4.0
CCOC(=O)c1c(C)oc2c1c(CN1CCN(C(=O)OCC)CC1)c(O)c1ccccc12,75*,-9,-21%,-11%,15%,-2%,.
Cc1ccccc1NC(=O)C(=O)NCCc1c[nH]c2ccccc12,-4,0,7%,1.4%,15%,6%,1.8
C/C(=N/NC(=O)CNC(=O)Cc1ccc(Cl)cc1)c1ccco1,-4,13,11%,.,-1%[15.4 µM],8%,-9.4
O=C1CCCC2=C1C(c1ccccc1O)C1=C(CCCC1=O)O2,-3,25,-25%,-1.2%,0%,-7%,-2.0
Cc1ccc(S(=O)(=O)N2CCN(Cc3nc4sc(C)c(C)c4c(=O)[nH]3)CC2)cc1,2,12,12%,8.4%,-49%[inhibitor],-16%,0.3
COC(=O)C1=C(C)N(C2CCCC2)C(=O)C1(NC(C)=O)C(F)(F)F (stereo unspecified),-4,18,0%,-0.6%,-6%,8%,5.1
COc1ccc(CC(=O)NC(=S)Nc2cccc(C)c2)cc1,-2,.,.,.,10%[15.4 µM],-14%,.
O=C(Nc1ccc(F)cc1)C(c1ccccc1)N1CCN(S(=O)(=O)c2c(F)cccc2F)CC1 (stereo unspecified),-4,-2,-4%,-5.1%,?,2%,-3.3
COc1ccc(-c2ccccc2[C@H]2[C@@H]3C=CC[C@@H](C)[C@@H]3C(=O)N2Cc2ccccc2)cc1,.,.,?,-0.9%,.,-16%,4.3
COc1ccc(N2CCN(C(C)=C3C(=O)c4ccccc4C3=O)CC2)cc1,-4,?,-20%,-4.3%,?,7%,2.7
COc1ccccc1-c1cc(C(=O)N2CCN(c3ccccc3)CC2)no1,-2,4,4%,-2.0%,8%,-15%,-1.7
Oc1ccc(-c2csc(Nc3ncccn3)n2)cc1O,12,-8,50µM*,.,-13%[15.4 µM],-9%,-2.5
COc1ccc(NC(=O)Cc2ccc(Cl)cc2)cc1NC(=O)c1ccco1,-13,-15,?,54%,4%,0%,3.8
COc1ccc(OCC(=O)O/N=C(\N)Cc2cccs2)cc1,-17,-18,-8%,0.8%,1%,1%,1.5
O=C(CSc1nnc2c(n1)[nH]c1ccccc12)OCc1ccccc1,-14,-2,12%,-2.0%,19%,-4%[15.4 µM],-1.2
CC(C)CC(=O)Nc1ccnc(-c2ccncc2)n1,-3,0,7%,1.7%,10%,-20%,-0.4
COc1ccc(Nc2nnc(Cc3ccc(Cl)cc3)c(=O)[nH]2)c(OC)c1,-21,16,-6%,-3.2%,-27%,3%,2.7
CCOC(=O)c1ccccc1NC(=O)C1COc2ccccc2O1 (stereo unspecified),-4,-6,-15%,-7.4%,1%,-9%,4.5
CC(C)CCN(C(=O)CCCSc1nc2ccccc2[nH]1)c1c(N)n(Cc2ccccc2)c(=O)[nH]c1=O,-2,3,.,-14%,-1%,3%,.
CCCCNC(=S)NNC(=O)c1ccc(Br)o1,-13,3,15%,-2.6%,-23%,-8%,1.4

# High-throughput results: PubChem, National Center for Advancing Translational Sciences (NCATS)
